# TexasRed autofl = compounds fluorescent in Texas Red spectral region; Compound fluorescence, Texas Red channel, 547/618 nm; hits give high values; max dye-equivalent concentration, M; 59,000 compounds, 0.06% hits; AID 587; in the data active = max dye-equivalent concentration above about 10 nM; inconclusive = between about 1.1 nM and that limit
#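 Compound titrations in 100 mM Tris pH 8.0 were incubated 15 min at room temperature and read at 547 nm excitation / 618 nm emission. Texas Red six-point standard curve on each plate converted fluorescence to dye-equivalent concentration.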
# Fluorescein autfl = compound fluoresces in the fluorescein spectral region; max fluorescein-equivalent concentration, M; Compound autofluorescence, 480/540 nm, fluorescein-equivalent; hits give high values; 59,000 compounds, 0.91% hits; in the data active = max fluorescein-equivalent concentration above about 10 nM; inconclusive = between about 1.1 nM and that limit
#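 Normalized response (dye-equivalent concentration) derives from comparing each well's 540 nm emission, under 480 nm excitation, with plate-resident fluorescein standards. Compounds were held in 100 mM Tris, pH 8.0, for 15 min at room temperature.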
# BRCT PPI green = inhibitors of human BRCA1 BRCT-phosphoprotein interaction (green fluorophore) | P38398 | BRCA1 BRCT-phosphopeptide binding, green fluorescence polarization | Potency, µM (titrated, usually from 76.9 µM), for the others: at the highest dose activity change, negative = inhibition, usual class: inhibitors | 75,000 compounds, 0.05% hits | AID 875;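 also: potency is read from the fitted curve at half-maximal effect; plate controls were peptide without protein for full effect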
# Target sequence (P38398 whole entry, looked up): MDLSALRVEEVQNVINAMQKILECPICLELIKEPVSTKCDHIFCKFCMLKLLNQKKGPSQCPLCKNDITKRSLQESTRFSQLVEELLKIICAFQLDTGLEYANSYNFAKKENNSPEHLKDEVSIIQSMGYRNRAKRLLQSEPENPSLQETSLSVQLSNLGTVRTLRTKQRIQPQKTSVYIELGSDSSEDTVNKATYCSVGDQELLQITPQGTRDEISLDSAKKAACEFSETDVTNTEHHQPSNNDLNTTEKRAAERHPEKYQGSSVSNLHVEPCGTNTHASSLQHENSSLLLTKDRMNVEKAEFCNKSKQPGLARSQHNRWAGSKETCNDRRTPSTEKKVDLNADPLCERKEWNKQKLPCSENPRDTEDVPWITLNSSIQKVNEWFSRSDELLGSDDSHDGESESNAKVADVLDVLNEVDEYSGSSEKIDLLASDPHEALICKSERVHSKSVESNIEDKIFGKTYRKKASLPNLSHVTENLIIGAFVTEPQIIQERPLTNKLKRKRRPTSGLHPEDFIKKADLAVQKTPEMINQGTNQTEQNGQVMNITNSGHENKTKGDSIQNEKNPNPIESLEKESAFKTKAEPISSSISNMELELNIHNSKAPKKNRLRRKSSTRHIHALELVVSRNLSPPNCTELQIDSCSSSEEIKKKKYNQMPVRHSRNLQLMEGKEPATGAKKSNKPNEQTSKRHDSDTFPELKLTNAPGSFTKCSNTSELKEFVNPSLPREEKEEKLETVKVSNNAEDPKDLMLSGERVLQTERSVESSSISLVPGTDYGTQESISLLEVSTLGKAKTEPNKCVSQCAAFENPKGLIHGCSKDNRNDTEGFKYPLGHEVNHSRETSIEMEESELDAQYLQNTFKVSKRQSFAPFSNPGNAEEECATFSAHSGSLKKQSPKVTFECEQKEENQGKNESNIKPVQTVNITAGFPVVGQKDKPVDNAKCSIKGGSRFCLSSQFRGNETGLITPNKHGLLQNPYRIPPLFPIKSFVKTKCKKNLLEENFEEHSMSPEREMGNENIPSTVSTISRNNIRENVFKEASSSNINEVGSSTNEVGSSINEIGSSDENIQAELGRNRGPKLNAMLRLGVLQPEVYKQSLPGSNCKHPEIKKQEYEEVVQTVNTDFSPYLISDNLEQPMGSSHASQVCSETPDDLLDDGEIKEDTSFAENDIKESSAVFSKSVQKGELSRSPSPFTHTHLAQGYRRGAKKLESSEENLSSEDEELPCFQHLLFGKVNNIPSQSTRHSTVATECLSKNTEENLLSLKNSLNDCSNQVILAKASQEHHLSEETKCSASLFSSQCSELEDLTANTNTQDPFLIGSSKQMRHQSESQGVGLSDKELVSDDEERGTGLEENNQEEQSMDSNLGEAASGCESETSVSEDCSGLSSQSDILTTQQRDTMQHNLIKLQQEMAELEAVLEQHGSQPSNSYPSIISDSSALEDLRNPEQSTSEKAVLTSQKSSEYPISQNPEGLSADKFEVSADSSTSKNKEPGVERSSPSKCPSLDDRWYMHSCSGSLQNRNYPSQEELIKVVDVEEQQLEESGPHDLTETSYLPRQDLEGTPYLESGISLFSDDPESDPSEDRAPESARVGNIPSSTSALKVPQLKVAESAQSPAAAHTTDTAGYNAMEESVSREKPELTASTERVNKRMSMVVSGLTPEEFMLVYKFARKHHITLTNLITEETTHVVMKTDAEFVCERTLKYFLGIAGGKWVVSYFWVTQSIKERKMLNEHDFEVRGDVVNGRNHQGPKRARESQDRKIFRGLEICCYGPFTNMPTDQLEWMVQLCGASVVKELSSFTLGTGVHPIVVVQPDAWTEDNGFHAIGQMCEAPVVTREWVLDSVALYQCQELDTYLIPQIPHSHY
#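 Compounds were incubated for 12 min at room temperature with a complex of 100 nM fluorescein-tagged pBACH1 decapeptide and 250 nM His-tagged BRCT protein. Buffer was phosphate pH 7.3 with EDTA, DTT and Tween 20. Disruption of binding lowers the polarization signal.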
# HEK293 cAMP cs = counter-screen for TSHR agonists: cAMP increase in parental HEK293 | Potency, µM (titrated, usually from 57.1 µM), for inactives: at the highest dose activation, usual class: activators | 73,000 compounds, 2.5% hits | parental HEK293 CNG cAMP sensor, membrane potential fluorescence; also: potency is read from the fitted curve at half-maximal effect; % of control where 0% means no effect; nearly all actives have a fitted effect of over 55% in size
#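 Parental HEK 293 cells stably expressing a cAMP-gated CNG channel were loaded with membrane potential dye containing 100 uM RO 20-1724 for 60 min. Compound added for 30 min; depolarization read as fluorescence intensity at 590 nm.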
# Rhodamine autofl = compound autofluorescence in rhodamine spectral region; 59,000 compounds, 0.05% hits; max dye-equivalent concentration, M; Rhodamine-region fluorescence, 547/598 nm, Tris buffer; hits give high values; AID 594; in the data active = max dye-equivalent concentration above about 11 nM; inconclusive = between about 1.1 nM and that limit
#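 Intrinsic compound fluorescence, ex 547 / em 598 nm, CCD imager. Tris 100 mM pH 8.0; 15 min RT. Output = rhodamine dye-equivalent concentration at each compound concentration.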
# USP2a inhib = blocks human ubiquitin-specific protease USP2a. O75604. USP2a enzymatic assay, qHTS inhibition. Potency, µM (top dose mostly 38.3 µM), for the others: at the highest dose activity change, negative = inhibition, most hits filed as inhibitors. 60,000 compounds, 0.1% hits;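 also: potency is read from the fitted curve at half-maximal effect; nearly all actives have a fitted effect of over 60% in size; plate controls were DMSO for no effect and NEM full inhibition control for full effect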
#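 20 nM USP2 core + cpd, 30 min RT; add 20 nM Ub-PLA2/20 uM NBD C6-HPC; read Ex460/Em535 at 0 h and 2.5 h. Normalized to NEM; qHTS curve fit/classification.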
# BRCT inh red = disrupts BRCA1 BRCT binding to phosphoprotein, red fluorophore readout; P38398; BRCT-phosphopeptide binding, red fluorescence polarization; Potency, µM (doses to about 76.9 µM), without a hit: at the highest dose activity change, negative = inhibition, usual class: inhibitors; 75,000 compounds, 0.03% hits; also: % is scaled to controls: 0 for no effect and ±100 for the full control effect
#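 Fluorescence polarization: 100 nM His-tagged BRCA1 BRCT with 100 nM TAMRA-labelled phospho-BACH1 decapeptide, phosphate buffer pH 7.3 with 150 mM NaCl, DTT, 0.01% Tween 20; 12 min RT. Binding inhibition seen as FP decrease.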
# Numbers without * were called inactive; i = inactive; ? = inconclusive; · = not tested or not shown; [ ] = another dose, or the depositor's remark. Unless noted, calls follow the shape of the dose curve; as a rule, active = well fitted curve in the direction sought with a large enough effect; inconclusive = small, poorly fitted or top-dose-only effect, or another doubt; inactive = no such curve, though single readings can be large; an effect the other way counts as inactive or inconclusive. Not all compounds are listed; the hit share may differ from the screen's.
(1) O=c1c(-c2ccc(Cl)cc2)nc2cnc(N3CCOCC3)nc2n1CCc1ccccc1
(2) COc1cccc(Cn2c(=O)c(-c3cccs3)nc3cnc(OCc4ccccc4)nc32)c1
(3) Cn1nnnc1SCC(=O)N1CCN(Cc2ccccc2)CC1
(4) CCNc1ncc2nc(-c3ccc(Cl)cc3)c(=O)n(Cc3cccs3)c2n1
(5) CCNc1ncc2nc(CCc3ccccc3)c(=O)n(CCC#N)c2n1
(6) CCCCn1c(=NC(=O)c2ccco2)c(C(=O)OCC)cc2c(=O)n3ccccc3nc21
(7) COc1cccc(-c2cn3nc4c(nc3n2)CCCC4)c1
(8) NC(=O)CSc1nnc(-c2ccc(O)cc2)n1Cc1ccco1

assay / entry,1,2,3,4,5,6,7,8
TexasRed autofl,i,i,i,i,i,i,i,i
Fluorescein autfl,i,?,i,?,i,i,?,?
BRCT PPI green,-0.1%,0.4%,2.0%,-5.4%,0.9%,-1.9%,7.1%,-2.2%
HEK293 cAMP cs,?,?,-20%,?,?,-15%,2%,15%
Rhodamine autofl,i,i,i,i,i,i,i,i
USP2a inhib,109%[activator],274%[activator],35%[activator],166%[activator],20%,11%,42%[activator],3%
BRCT inh red,-0.5%,0.5%,2.4%,0.6%,0.7%,0.0%,1.6%,-0.9%

(9) Cn1cc(-c2nc3cnc(N4CCOCC4)nc3n(C3CC3)c2=O)c2ccccc21
(10) Cc1ccc2c(CC(=O)N3CCN(S(=O)(=O)c4ccc5c(c4)OCCO5)CC3)coc2c1
(11) COc1cc(C2C3CN(C)CC=C3C(C#N)=C(N)C2(C#N)C#N)ccc1OC(C)C (stereo not given)
(12) Cc1cc(=O)oc2c(CN(C)Cc3ccccc3)c(O)ccc12
(13) CCN(CC)c1ccc2cc(C(=O)Nc3cccnc3N3CCOCC3)c(=O)oc2c1
(14) Cc1ccc(S(=O)(=O)c2cc3c(=O)n4ccccc4nc3n(CC3CCCO3)c2=N)cc1 (stereo not given)
(15) O=c1c(-c2ccc(Cl)cc2)nc2cnc(N3CCNCC3)nc2n1-c1ccccc1
(16) COCCNC(=O)C(C#N)c1nc2ccccc2nc1N1CCCCCC1 (stereo not given)

assay / entry,9,10,11,12,13,14,15,16
TexasRed autofl,i,i,i,i,i,i,i,i
Fluorescein autfl,?,i,3.6e-08M*,?,4e-08M*,i,i,?
BRCT PPI green,-2.7%,1.9%,-5.0%,-0.6%,0.5%,14%,-0.8%,-1.7%
HEK293 cAMP cs,11%,20%,2%,-1%,4%,-1%,-13%,15%
Rhodamine autofl,i,i,i,i,i,i,i,i
USP2a inhib,165%[activator],60%[activator],16%,-16%,1%,2%,214%[activator],3%
BRCT inh red,1.1%,-0.3%,-3.1%,0.4%,-0.4%,-0.5%,0.2%,-1.6%

(17) COc1ccc(-c2nc3cnc(Nc4cccc(OC)c4)nc3n(Cc3cccs3)c2=O)cc1
(18) COc1ccc2[nH]c(=O)c(CN(Cc3ccc(C)cc3)Cc3nnnn3CC3CCCO3)cc2c1 (stereo not given)
(19) O=C(NC1CCCC1)c1ccc2nc(-c3ccco3)c(-c3ccco3)nc2c1
(20) COc1ccccc1N=c1oc2cc(O)ccc2cc1C(=O)NCC1CCCO1 (stereo not given)
(21) CCNc1ncc2nc(-c3cccs3)c(=O)n(Cc3cccs3)c2n1
(22) CN1CCN(c2ncc3nc(-c4ccc(Cl)cc4)c(=O)n(Cc4cccs4)c3n2)CC1
(23) O=C(NCc1ccco1)c1cc2ccc(O)cc2oc1=O
(24) CC1CC=C2C(C#N)=C(N)C(C#N)(C#N)C(c3cccs3)C2C1 (stereo not given)

assay / entry,17,18,19,20,21,22,23,24
TexasRed autofl,i,i,i,i,i,i,i,i
Fluorescein autfl,?,?,i,i,?,i,?,2.7e-08M*
BRCT PPI green,-3.5%,-3.4%,-2.5%,1.4%,5.5%,-2.9%,-1.5%,-9.3%
HEK293 cAMP cs,12%,?,6%,1.6µM*,-3%,?,3%,5%
Rhodamine autofl,i,i,i,i,i,i,i,i
USP2a inhib,250%[activator],32%[activator],33%[activator],16%,245%[activator],191%[activator],12%,·
BRCT inh red,1.1%,-1.0%,-3.4%,-0.7%,0.1%,0.0%,-0.9%,-1.1%

(25) CCCn1c(CCC(=O)O)ccc1-c1cccs1
(26) O=c1c(-c2ccc(F)cc2)nc2cnc(N3CCOCC3)nc2n1Cc1ccc(F)cc1
(27) N=C(N)c1ccc(OCCCCCOc2ccc(C(=N)N)cc2)cc1 (tested in a mixture with another compound)
(28) CCNc1ncc2nc(-c3ccc(OC)cc3)c(=O)n(-c3ccc(OC)cc3)c2n1
(29) CN1CCN(c2ncc3nc(-c4cn(C)c5ccccc45)c(=O)n(Cc4cccs4)c3n2)CC1
(30) COc1ccc(CCNC(=O)c2ccc3nc(-c4ccco4)c(-c4ccco4)nc3c2)cc1OC
(31) CN(C)c1ncc2nc(-c3ccccc3)c(=O)n(-c3ccccc3)c2n1
(32) CCNC(=O)C1CC(=O)N(CC)C(=Nc2cc(Cl)c(O)c(Cl)c2)S1 (stereo not given)

assay / entry,25,26,27,28,29,30,31,32
TexasRed autofl,i,i,i,i,i,i,i,i
Fluorescein autfl,?,i,i,i,?,i,i,?
BRCT PPI green,13%,-1.2%,22%,26%,-0.1%,-1.7%,4.3%,-1.5%
HEK293 cAMP cs,?,15%,-7%,32µM*,5%,18%,-5%,-2%
Rhodamine autofl,i,i,i,i,i,i,i,i
USP2a inhib,31%[activator],76%[activator],-2%,44%[activator],112%[activator],44%[activator],61%[activator],-7%
BRCT inh red,-1.1%,0.4%,-3.3%,-2.5%,0.4%,-0.6%,0.8%,0.1%

(33) COc1cccc(C2CC(C(F)(F)F)n3ncc(C(=O)NCc4ccco4)c3N2)c1 (stereo not given)
(34) N#CCCn1c(=O)c(-c2cccc(C#N)c2)nc2cnc(Oc3cccc(Cl)c3)nc21
(35) COc1ccccc1NC(=O)N1CCc2[nH]c3ccc(Cl)cc3c2C1
(36) CN(C)c1ncc2ncc(=O)n(CCC#N)c2n1
(37) CCC(C)(C)n1nnnc1CN(Cc1cc2cc(OC)c(OC)cc2[nH]c1=O)C1CCCC1
(38) CCNc1ncc2nc(-c3ccccc3)c(=O)n(CCOC)c2n1
(39) COc1ccc(-c2nc3cnc(OC)nc3n(-c3ccccc3)c2=O)cc1
(40) COC(=O)c1cnn2c(C(F)(F)F)cc(-c3ccco3)nc12

assay / entry,33,34,35,36,37,38,39,40
TexasRed autofl,?,i,i,i,?,?,i,i
Fluorescein autfl,i,i,?,i,?,i,i,i
BRCT PPI green,-1.3%,-0.2%,-6.4%,-2.9%,-19%,-1.1%,-1.5%,3.1%
HEK293 cAMP cs,-4%,6%,-5%,1%,25%,?,19%,1%
Rhodamine autofl,i,i,i,i,i,i,i,i
USP2a inhib,15%,221%[activator],30%,8%,24%,3%,108%[activator],27%
BRCT inh red,-2.2%,0.3%,-2.4%,0.6%,-7.0%,-0.9%,-0.6%,0.6%

(41) O=c1c(-c2ccccc2)nc2cnc(Nc3ccccc3)nc2n1C[C@H]1CCCO1
(42) COc1cccc(Nc2ncc3nc(-c4cccs4)c(=O)n(Cc4cccs4)c3n2)c1
(43) CCOCCCn1c(=N)c(C(=O)Nc2cc(C)on2)cc2c(=O)n3ccccc3nc21
(44) O=C(Nc1c(C(=O)N2CCOCC2)cnn1-c1ccccc1Cl)c1ccco1
(45) O=c1c(-c2cc(F)cc(F)c2)nc2cnc(N3CCOCC3)nc2n1-c1ccccc1
(46) CC1(C)Cc2c(sc3nc(-c4cccs4)n(N)c(=O)c23)CO1
(47) COc1cccc(Cn2c(=O)c(-c3cccc(C#N)c3)nc3cnc(N4CCN(C)CC4)nc32)c1
(48) Cc1ccc2cc(C#N)c(NCCNC(=O)C3CC3)nc2c1C

assay / entry,41,42,43,44,45,46,47,48
TexasRed autofl,i,i,?,i,i,i,i,i
Fluorescein autfl,i,?,i,i,i,i,i,?
BRCT PPI green,-2.3%,-5.3%,0.0%,1.8%,-0.2%,0.0%,-1.4%,-3.0%
HEK293 cAMP cs,12%,12%,6%,17%,?,28%,-78%[inhibitor],25µM*
Rhodamine autofl,i,i,i,i,i,i,i,i
USP2a inhib,24%,182%[activator],3%,11%,39%[activator],25%,276%[activator],14%
BRCT inh red,0.7%,0.9%,-0.7%,-0.1%,-0.9%,0.1%,1.5%,0.3%

# Sorted by count of non-hydrogen atoms (high to low): 5 of the compounds above
(47) COc1cccc(Cn2c(=O)c(-c3cccc(C#N)c3)nc3cnc(N4CCN(C)CC4)nc32)c1
(42) COc1cccc(Nc2ncc3nc(-c4cccs4)c(=O)n(Cc4cccs4)c3n2)c1
(41) O=c1c(-c2ccccc2)nc2cnc(Nc3ccccc3)nc2n1C[C@H]1CCCO1
(48) Cc1ccc2cc(C#N)c(NCCNC(=O)C3CC3)nc2c1C
(46) CC1(C)Cc2c(sc3nc(-c4cccs4)n(N)c(=O)c23)CO1

assay / entry,47,42,41,48,46
TexasRed autofl,i,i,i,i,i
Fluorescein autfl,i,?,i,?,i
BRCT PPI green,-1.4%,-5.3%,-2.3%,-3.0%,0.0%
HEK293 cAMP cs,-78%[inhibitor],12%,12%,25µM*,28%
Rhodamine autofl,i,i,i,i,i
USP2a inhib,276%[activator],182%[activator],24%,14%,25%
BRCT inh red,1.5%,0.9%,0.7%,0.3%,0.1%

# The list continues:
(49) CC(C)(C)OC(=O)c1c(N)n(CCCN2CCCC2=O)c2nc3ccccc3nc12
(50) COc1cccc(Cn2c(=O)c(-c3cc(F)cc(F)c3)nc3cnc(N4CCNCC4)nc32)c1
(51) COc1ccc(-c2nc3cnc(N4CCN(C)CC4)nc3n(CCc3ccccc3)c2=O)cc1
(52) N=c1c(C(=O)NCc2ccc(F)cc2)cc2c(=O)n3ccccc3nc2n1Cc1ccco1
(53) Cc1c2c(n3c(nc4ccccc43)c1C#N)N(Cc1ccccn1)CC2
(54) CCNc1ncc2nc(-c3cn(C)c4ccccc34)c(=O)n(C[C@H]3CCCO3)c2n1
(55) Cc1cc(NCCCN2CCOCC2)n2c(nc3ccccc32)c1C#N
(56) C=CCN(CC=C)c1nc2ccccc2nc1C(C#N)C(=O)OCCOC (stereo not given)

assay / entry,49,50,51,52,53,54,55,56
TexasRed autofl,?,i,i,?,i,i,i,i
Fluorescein autfl,?,i,i,i,?,?,i,?
BRCT PPI green,-1.3%,-1.1%,12%,-1.7%,0.7%,-1.3%,-4.0%,3.2%
HEK293 cAMP cs,4%,11%,-4%,0%,-1%,-6%,-28%,?
Rhodamine autofl,i,i,i,i,i,i,i,i
USP2a inhib,5%,133%[activator],174%[activator],24%,-8%,260%[activator],-1%,9%
BRCT inh red,-0.3%,0.7%,-1.5%,-0.6%,0.3%,-0.2%,-0.5%,-1.4%
